# Autofluor counter: flagged as autofluorescent in microsphere protease counterscreen | 360,000 compounds, 3.1% hits | compound autofluorescence counterscreen, microsphere flow cytometry; active compounds read high | AID 624483 | fluorescence intensity (concentration not given with the values);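 active = at least 3 SD above the mean of all compounds, about 16000 in these data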;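 note: 100 nL of 1 mM stock went into each well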
# BJeLR lethal: kills HRASV12-expressing BJeLR cells; BJeLR (HRASV12) viability, CellTiter-Glo ATP luminescence, 48 h; reference of the scale not given here; inhibition, % (no concentration beside the values); 300,000 compounds, 0.17% hits;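 active = replicate mean above 50%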;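 note: 50 nL library stock added to about 25 µL; numbers are from one replicate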
# Sa RN4220 lethal: kills Staphylococcus aureus RN4220. S. aureus RN4220 growth, OD600, 16 h. inhibition, % (test concentration not listed). 330,000 compounds, 0.33% hits. AID 1259311;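 active = z-score of -3 or lower and OD600 up to 0.18 on both plates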;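 note: plate controls were untreated cells for no effect and reference antibiotic for full effect; stock transfer was 100 nL into about 80 µL; one replicate is shown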
# Mtb hypoxia inh: reduces hypoxia-regulated biosensor signal in M. tuberculosis | M. tuberculosis hypoxia-regulated fluorescent reporter, fluorescence | AID 1159583 | fluorescence inhibition, % (concentration not given with the values) | 300,000 compounds, 0.1% hits;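 active = 35 to 45% if threefold the growth effect, above 45% if 1.5-fold the growth effect; inactive = the rest, general growth blockers included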;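 note: wells of about 50 µL received 100 nL stock; 0% = vehicle wells and 100% = reference inhibitor wells; whole bacteria with a GFP reporter of the hypoxia response; strong numbers were not always called active; many hits fall short of the cut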
# ugtP null kill: compounds lethal to S. aureus RN4220 ugtP deletion mutant. OD600 growth, 16 h; some inactives read as strong as hits. growth inhibition, % (test concentration not listed). 330,000 compounds, 0.54% hits. AID 1259309;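 active = z-score under -3 and OD600 up to 0.15 on both plates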;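 note: plate controls were untreated wells for no effect and antibiotic for full effect; wells of about 80 µL received 100 nL stock; the first replicate is given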
# PrP 5UTR inh: inhibition of PrP 5' UTR reporter expression; inhibition, % (test concentration not listed); cell-based PrP 5' UTR mRNA reporter, plate reader; 340,000 compounds, 0.35% hits;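 active = every replicate at 50% or more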;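 note: 0 = median of the neutral control wells; tested in H4 reporter cells; numbers are from one replicate; inactives centre near -14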
# Mtb hypoxia inh growth: second read-out of Mtb hypoxia inh, no call of its own (marks repeat the call); growth inhibition, %; measured here: M. tuberculosis growth (absorbance);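 0% = vehicle and 100% = reference antibiotic; read after six days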
# Starred values were filed as active, the others as inactive; nt = not tested or not shown; & = joins results of further samples.
SMILES,Autofluor counter,BJeLR lethal,Sa RN4220 lethal,Mtb hypoxia inh,Mtb hypoxia inh growth,ugtP null kill,PrP 5UTR inh
Cc1cccc(NCC(=O)NN=Cc2cccn2C)c1,nt,nt,2.1,14,2,8,nt
CC(=O)c1cccc(NC(=O)N2CCCC2C(=O)NCc2ccccc2)c1 (stereo not drawn),4003,3,5.4,nt,nt,10,-20
COC(=O)c1cn(CCC#N)nc1-c1ccc2ccccc2c1,nt,-2,-0.6,10,11,-1,9
CCN(c1ccc(NC(=O)COC(=O)c2ccc(C)c(S(=O)(=O)N3CCOCC3)c2)cc1)C(C)C,9947,1,2.9,3,1,4,-34
COc1cc(/C=N/NC(=O)c2nnn(-c3nonc3N)c2C(C)C)ccc1OCc1ccccc1,4306,-5,nt,nt,nt,nt,-51
COc1ccc(C=NNc2ncc(Br)cn2)c(OC)c1,nt,nt,5.2,3,1,5,nt
O=c1[nH]c(=O)n(-c2ccc(F)cc2)c2c1C(C(F)(F)F)(C(F)(F)F)N=C(c1ccc(F)cc1)N2,2529,32,-5.0,11,15,-3,-6
CC(=O)c1c(C)[nH]c(C(=O)OCC(=O)N2CCN(S(=O)(=O)c3ccc(C)cc3)CC2)c1C,3442,nt,-1.0,-7,7,-1,-15
CCCCN(C)C(=O)c1nc2ccccn2c1CNCCCn1ncc2ccccc21,5342,-3,1.7,6,0,-6,-68
O=C(O)c1cccc2c1C(=O)N(Cc1ccccc1)C2,3246,-12,3.9,16,6,1,-10
NC(=O)C1CCCN(S(=O)(=O)c2ccccc2)C1 (stereo not drawn),10292,5,5.5,5,1,2,-18
COc1ccc(NC(=O)c2ccco2)cc1NC(=O)c1ccc(Br)o1,10388,5,7.1,6,10,-6,-58
COc1ccc(OC)c(C(=O)COC(=O)CNC(=O)c2ccccc2)c1,2133,-4,5.3,16,11,5,-5
CCc1c(C)[nH]n(-c2nc(-c3ccccc3)cs2)c1=O,4040,3,20,6,13,2,-23
Cc1noc(C)c1C(=O)Nc1cccc2ncccc12,3774,-8,-1.7,0,1,7,-3
O=C(NCc1cccs1)c1cc(-c2ccccc2)nn1CC1CC(c2cccnc2)=NO1 (stereo not drawn),4183,-2,2.1,16,16,-1,-37
Cc1ccc(NC(=O)CN(C)CC(=O)Nc2ccccc2Oc2ccccc2)cc1,4217,-2,6.3,6,-4,-4,-19
COc1ccc(CN(C)c2nc(-c3cccnc3)nc3ccccc23)cc1OC,nt,-3,2.1,1,15,8,nt
CC(C)CC(=O)N1CCC(O)(CS(=O)(=O)Cc2ccc(Cl)cc2)CC1,4422,4,5.8,16,6,9,-30
NC1C=CC=C(C(=O)O)C1 (stereo not drawn),5691,2,11,6,-6,-2,-8
O=C(NC1C(=O)NNC1c1ccc(Cl)cc1)c1ccc(F)cc1 (stereo not drawn),2180,-7,6.8,7,-2,2,-14
CCCSc1nnc(NC(=O)Nc2ccccc2)s1,2658,-2,14,12,9,4,-41
CC(=O)NC(=S)NNC(=O)c1ccc(Br)cc1,4308,4,nt,nt,nt,nt,-53
O=C(O)CC(NS(=O)(=O)c1c(F)cc(F)cc1Br)c1ccccc1Cl (stereo not drawn),4024,7,0.3,14,2,10,-25
COc1ccc(C=NNC(=O)c2cccc([N+](=O)[O-])c2)cc1O,nt,nt,-0.8,6,3,2,nt

# (cont.)
SMILES,Autofluor counter,BJeLR lethal,Sa RN4220 lethal,Mtb hypoxia inh,Mtb hypoxia inh growth,ugtP null kill,PrP 5UTR inh
CC(=O)Nc1ccc(NC(=O)c2ccccc2N(C)S(=O)(=O)c2ccccc2)cc1,3259,3,1.0,9,-3,8,-25
CCOC(=O)Cn1c(=O)c2c(nc3n2CCCN3CCc2ccccc2)n(C)c1=O,4127,-1,2.1,14,4,13,-9
CN(C)c1ccc(C(=O)Nc2ccc(O)c3c(=O)cc(-c4ccccc4Cl)oc23)cc1,2860,8,2.1,14,8,2,-3
OCCC1CN(Cc2ccc(-n3cccn3)cc2)CCN1Cc1ccccc1 (stereo not drawn),4625,-1,5.1,17,9,3,-12
ON=C1CCSc2ccccc21,nt,nt,5.6,10,11,-4,nt
Cc1ccc(S(=O)(=O)NC(=O)c2ccc(F)cc2)c(C)c1,5865,-4,0.7,10,4,3,-18
CCC(C)(C)n1nnnc1C(c1cc2cc(OC)c(OC)cc2[nH]c1=O)N1CCc2ccccc21 (stereo not drawn),24005*,-10,31,-16,4,-34,9
Cc1cccc(Nc2c3c(nc4ccccc24)CCC3)c1,6462,5,-3.5,1,-3,-13,-13
CCOC(=O)C/C(C)=N\Nc1nc(-c2ccccc2)cs1,3106,7,nt,nt,nt,nt,-4
O=C1c2ccccc2C(O)(Cc2ccccc2)N1CCCN1CCOCC1 (stereo not drawn),12670,-1,2.3,2,0,-2,-35
CCCCNC(=O)CCNS(=O)(=O)c1ccc(C)cc1,7034,-3,2.1,6,-5,6,-24
CCN(Cc1ccccc1)S(=O)(=O)c1cc(C(=O)NC2CCCCCC2)ccc1OC,2565,19,1.0,2,-1,-10,-6
S=C(Nc1ccccc1)Nc1ccc(Br)cn1,4197,2,4.6,nt,nt,12,-10
O=C(CN1CCCCC1)c1c[nH]c2ccccc12,3702,8,4.4,20,11,10,-13
Cc1[nH]n(-c2ccc([N+](=O)[O-])cc2)c(=O)c1C=NCCc1c[nH]c2ccccc12,8539,5,2.2,1,4,-4,-37
CCONC(=O)Nc1ccccc1[N+](=O)[O-],2073,-1,7.0,9,9,3,3
NS(=O)(=O)c1ccc(CCNc2nc3c(-c4cccc(F)c4)nnn3c3ccccc23)cc1,7970,-3,nt,nt,nt,nt,-17
C#Cc1ccc(C2C=C(C(=O)N3CCN(Cc4ccc5c(c4)OCO5)CC3)OC(OCc3ccc(CO)cc3)C2)cc1 (stereo not drawn),nt,nt,33,16,8,7,nt
NC(=O)C12CCCC(Br)(CCC1)C2,4865,8,3.9,3,0,0,-24
CNC(=O)Nc1cc(C(C)(C)C)no1,6602,-6,3.6,4,6,-3,-21
Cc1ccc(C(=O)OCC(=O)Nc2cc(S(=O)(=O)N3CCOCC3)ccc2C)cc1,4312,10,0.3,-11,2,2,-11
CCC(C)c1ccc(S(=O)(=O)N2CCN(C(=O)COc3ccc4c(C)cc(=O)oc4c3)CC2)cc1 (stereo not drawn),3064,3,nt,nt,nt,nt,-7
Cc1ccc(C(=O)NCCCn2ccnc2)cc1[N+](=O)[O-],9476,8,1.7,4,6,10,8
CC1CN(C(=O)c2cccc(S(=O)(=O)Nc3cc(Cl)ccc3Cl)c2)CC(C)O1 (stereo not drawn),5649,1,19,10,2,1,-22
CCOC(=O)CNC(=O)N1CCc2ccc(NC(=O)c3ccccc3OC)cc2C1,3069,-1,0.6,3,-4,12,-14

# Only Mtb hypoxia inh and PrP 5UTR inh (three entries from above):
compound	Mtb hypoxia inh	PrP 5UTR inh
CCCCNC(=O)CCNS(=O)(=O)c1ccc(C)cc1	6	-24
CCN(Cc1ccccc1)S(=O)(=O)c1cc(C(=O)NC2CCCCCC2)ccc1OC	2	-6
S=C(Nc1ccccc1)Nc1ccc(Br)cn1	nt	-10

# Other structures
SMILES,Autofluor counter,BJeLR lethal,Sa RN4220 lethal,Mtb hypoxia inh,Mtb hypoxia inh growth,ugtP null kill,PrP 5UTR inh
COc1ccc(C(=O)/C=C/c2ccc(OC)c(O)c2)c(F)c1,2139,0,3.3,6,5,1,-47
CCN(C(=O)c1ccc(Br)cc1)c1ccccc1,4468,5,0.2,7,15,0,-7
CC(C)OC(=O)Cn1nnc(-c2ccccc2)n1,4155,3,5.5,nt,nt,5,-2
c1csc(-c2csc(-c3cccs3)n2)c1,3860,-7,2.1,8,3,30,-69
O=C1NC(c2ccc(Cl)cc2Cl)Oc2ccccc21 (stereo not drawn),4062,-4,3.7,7,-3,0,-24
CC/C(O)=C1\C(=O)CC(c2ccccc2)CC1=NC(C)C (stereo not drawn),2483,3,0.2,-4,5,1,-50
Cc1ccc2oc(C(=O)N(Cc3ccc(N(C)C)cc3)C3CCS(=O)(=O)C3)c(C)c2c1 (stereo not drawn),5407,-23,2.7,10,13,5,-70
COc1cc(-c2c(-c3ccsc3)sc3ccccc23)cc(OC)c1OC,3877,nt,-6.4,8,5,12,-21
CCC(C)NC(=O)Cn1cnc2sc(C)cc2c1=O (stereo not drawn),3445,-1,5.1,nt,nt,2,7
COc1ccc(C(=O)NC2CCCc3ccccc32)cc1Br (stereo not drawn),4633,-7,1.5,9,1,3,-9
CC(OC(=O)c1nc(-c2ccccc2)n(-c2ccccc2)n1)C(=O)Nc1cc(Cl)cc(Cl)c1 (stereo not drawn),2580,4,-6.9,2,-4,69,-28
Cc1ccc(C)c(N(CC(=O)NC(C)(C)C)C(=O)CNC(=O)c2cccs2)c1,4045,3,0.6,3,5,7,-11
O=C(CC1C(=O)NCCN1CC1CCCCC1)NC1(c2ccccc2)CC1 (stereo not drawn),5915,-4,7.9,11,3,6,-16
Cc1nn(Cc2ccc(Cl)c(Cl)c2)c(C)c1NC(=O)c1cc(-c2ccco2)on1,21457*,-3,7.3,6,6,-13,-17
Cc1ccc2c(c1Cl)NC(C(=O)O)C1CC(Sc3ccccc3[N+](=O)[O-])C(Cl)C21 (stereo not drawn),5219,-2,2.3,6,-2,-2,-11
O=C(NN=Cc1ccccc1OC(F)F)c1ccc(NS(=O)(=O)c2cccs2)cc1,6176,nt,10,8,8,-1,-8
CC(C)(C)OC(=O)NC(CCNC=C1C(=O)OC(C)(C)OC1=O)C(=O)O (stereo not drawn),6237,11,4.2,2,3,-2,-40
CCc1nc(N[C@@H](CC(C)C)C(=O)O)c2oc3ccccc3c2n1,3165,-6,8.9,-6,-1,4,-3
OCCC1CC(O)C(O)[C@]2(OCc3ccccc32)O1 (stereo partly drawn),nt,nt,4.2&2.0&3.0&3.0,6&0&4&14,5&6&9&6,6&3&-11&-9,nt
Cc1nn(Cc2ccccc2)c(Cl)c1C(=O)NCc1ccco1,3825,-12,2.3,nt,nt,4,-36
O=C(COc1ccc(Br)cc1)NCc1ccccn1,6951,-3,-3.4,-3,-9,-1,-13
COc1ccc(NC(=O)Nc2ccc3c(c2)C(=O)N([C@@H](C)CO)C[C@@H](C)[C@@H](CN(C)CC2CCCCC2)O3)cc1,3680,nt,-18,-1,9,1,-16
COc1ccc2c(c1)NP(=S)(c1ccccc1)N2 (stereo not drawn),3635,nt,1.1,-17,9,-8,-1
CCOC(=O)c1c(C=O)c(C)n(Cc2ccccc2Cl)c1C,6905,3,1.4,2,2,-9,-8
O=C1c2cccc3c(O)ccc(c23)C(=O)N1c1ccc(Cl)cc1,4164,-2,nt,nt,nt,nt,37

# Complete entries, quoted from the list. Order of values: Autofluor counter	BJeLR lethal	Sa RN4220 lethal	Mtb hypoxia inh	Mtb hypoxia inh growth	ugtP null kill	PrP 5UTR inh
# Cc1ccc(C(=O)OCC(=O)Nc2cc(S(=O)(=O)N3CCOCC3)ccc2C)cc1 is listed with 4312	10	0.3	-11	2	2	-11
# CCOC(=O)CNC(=O)N1CCc2ccc(NC(=O)c3ccccc3OC)cc2C1 is listed with 3069	-1	0.6	3	-4	12	-14
# CCC(C)c1ccc(S(=O)(=O)N2CCN(C(=O)COc3ccc4c(C)cc(=O)oc4c3)CC2)cc1 (stereo not drawn) is listed with 3064	3	nt	nt	nt	nt	-7
# Cc1nn(Cc2ccc(Cl)c(Cl)c2)c(C)c1NC(=O)c1cc(-c2ccco2)on1 is listed with 21457*	-3	7.3	6	6	-13	-17
# CC/C(O)=C1\C(=O)CC(c2ccccc2)CC1=NC(C)C (stereo not drawn) is listed with 2483	3	0.2	-4	5	1	-50

# Screening results: PubChem BioAssay, several laboratories
